Assay outcomes (PubChem BioAssay)
UCH37 inh = inhibitors of human UCH37 deubiquitinase, primary screen, biochemical, Ub-AMC cleavage, fluorescence. Ubiquitin carboxyl-terminal hydrolase isozyme L5 (Homo sapiens), Q9Y5K5. inhibition, % (test concentration not listed). purified proteasome/UCH37. AID 588478, 2011. 0.33% of 330,000 active;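 active = mean of two replicates above 20%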;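 note: 0% = compound-free wells with enzyme and 100% = wells lacking proteasome; stock transfer was 100 nL into about 20 µL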
Target sequence (Q9Y5K5 whole entry, looked up): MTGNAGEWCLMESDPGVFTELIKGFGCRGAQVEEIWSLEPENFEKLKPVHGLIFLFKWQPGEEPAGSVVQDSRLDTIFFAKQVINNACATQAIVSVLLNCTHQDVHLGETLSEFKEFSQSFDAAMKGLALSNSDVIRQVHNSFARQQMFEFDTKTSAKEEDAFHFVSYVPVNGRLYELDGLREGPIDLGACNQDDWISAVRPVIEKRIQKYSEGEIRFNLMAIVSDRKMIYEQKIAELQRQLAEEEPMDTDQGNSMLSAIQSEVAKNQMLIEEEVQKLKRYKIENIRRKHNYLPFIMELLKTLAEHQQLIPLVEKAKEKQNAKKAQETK
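assay system = human UCH37 enzyme supplied as purified proteasome complex | amount = proteasome at 0.15 nM in the dispensed enzyme solution | schedule = 30 min compound-proteasome preincubation then 25 min substrate reaction, room temperature | measured by = fluorescence, ex 355 nm, em 460 nm | benchmarks = no-proteasome wells (full inhibition) and compound-free wells (no inhibition)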
Ecoli growth = E. coli growth inhibition, primary screen, OD600. Escherichia coli growth, 23 h; hits give low values. OD600 absorbance (no concentration beside the values). 0.21% of 330,000 active;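 active = OD600 absorbance below the run mean of sample wells minus 3.6 SD, in any replicate, cut at about 0.56 in these data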;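 note: stock transfer was 300 nL into about 60 µL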
Starred values were filed as active, the others as inactive; i = inactive. Some of the compounds tested, so the mix of outcomes need not match the whole.

Second line of a record: UCH37 inh, Ecoli growth
CCOc1cc(C=NNC(=O)Cn2nc([N+](=O)[O-])cc2C)cc(Br)c1OCc1ccccc1F
  5.2, 0.74
CC(=NNC(=O)c1ccco1)c1cccc(NC(=O)c2ccc(C)s2)c1
  2.6, 0.6
N#Cc1c(N=CN2CCOCC2)sc2c1CCCCC2
  8.6, 0.66
CC(=NNC(=S)NC(C)C)c1ccccc1
  3.5, 0.71
Cc1ccsc1C=NNC(=O)c1nnn(-c2nonc2N)c1C(C)C
  7.2, 0.71
O=C(NCCCNCc1ccccc1)c1ccc(C=NO)nc1
  1.1, 0.67
Cn1c(N=Cc2c[nH]c3ccccc23)nc2ccccc21
  -1.6, 0.68
COc1cccc(C=NNC(=O)c2cccc([N+](=O)[O-])c2)c1OS(=O)(=O)c1ccc(C)cc1
  2.4, 0.69
COc1cc2c(cc1OC)-c1cc(OCc3cccnc3)nc(=O)n1CC2
  i, 0.68
CC1(C)CC(=O)C(C=Nn2cnc3ccccc3c2=O)=C(O)C1
  7.2, 0.68
COc1ccc(C(=O)NN=Cc2c(C)[nH]c(=O)[nH]c2=O)cc1
  -11, 0.68
COc1cc(C=NN=Cc2cc(OC)c(O)c(OC)c2)cc(OC)c1O
  19, 0.71
CC(=NNC(=O)c1c(Cl)c(C)nn1C)c1cccc(NC(=O)COc2ccccc2)c1
  -52, 0.64
Cc1ccc(C)c(C=NNC(=S)NC(C)C)c1
  -5.8, 0.75
CCc1ccc(-n2c(C)cc(C=NNC(=O)c3ccncc3)c2C)cc1
  6.8, 0.7
O=C(NN=Cc1ccccc1Br)c1cccc(S(=O)(=O)N2CCOCC2)c1
  7.8, 0.69
CC(=NNC(=O)c1ccc(CSc2nc(C)cc(C)n2)cc1)C1CCCCC1
  -1.0, 0.64
Cc1occc1C(=O)NN=C/C=C/c1ccc(N(C)C)cc1
  -28, 0.66
O=C(NN=Cc1ccccc1)c1sccc1OCc1ccc(F)cc1
  4.4, 0.68
CN(C)c1cccc2c(C=NO)ccc(N(C)C)c12
  0.0, 0.74
CN(C)c1ccc(C=NNC(=O)C2COc3ccccc3O2)o1 (centres undefined)
  -3.4, 0.71
COc1ccc(CC(=O)NN=C(C)c2cccnc2)cc1OC
  -2.5, 0.71
O=C(NN=Cc1c[nH]c2ccccc12)c1cccs1
  6.7, 0.61
S=c1[nH]nc(-c2ccccn2)n1N=Cc1cccc2ccccc12
  5.8, 0.68
COc1ccc(O)c(C=NNC(=O)CCC(=O)Nc2cccc(C)c2)c1
  -73, 0.63
CCCCCC(=O)NN=Cc1cc(Br)c(O)c(OC)c1
  -45, 0.67
CC(=NNc1nc(Nc2ccccc2)nc(N2CCOCC2)n1)c1cccs1
  1.7, 0.68
CCN(CC)S(=O)(=O)c1ccc(C(=O)NCc2nnc(SCC(=O)OC)n2C)cc1
  1.0, 0.71
Nc1c(C(=O)NN=Cc2ccc([N+](=O)[O-])cc2)cnn1-c1ccccc1
  6.2, 0.67
COc1ccc(N2CCN(CCNS(=O)(=O)c3cccc4nsnc34)CC2)cc1
  -0.3, 0.74
CC(C)COC(=O)c1cc(-c2ccc(C=Nn3cnnc3)o2)ccc1Cl
  -14, 0.69
Cc1ccc(C=NNC(=O)c2cc3c(ccc4ccccc43)o2)o1
  -226, 0.61
O=C(O)c1cccc(Cn2c(Cl)c(C=NNC(=O)c3ccc(O)cc3)sc2=O)c1
  18, 0.66
O=C1CS/C(=N/N=Cc2ccccc2OS(=O)(=O)c2ccccc2)N1
  7.6, 0.66
Cc1ccc(-c2cc(C(=O)NN=Cc3ccc([N+](=O)[O-])o3)c3ccccc3n2)o1
  -13, 0.64
N#CCC(=O)NN=Cc1ccccc1Cl
  5.9, 0.69
CC(=NNC(=O)c1cccnc1)c1nnn(-c2nonc2N)c1C
  3.0, 0.63
COC(=O)c1ccc(COc2ccccc2C=NO)o1
  0.5, 0.64
Cc1ccc(C=NNC(=O)C2(O)c3ccccc3-c3ccccc32)o1
  6.1, 0.7
CCOc1cccc(C=NN2C(=O)CSC2=S)c1O
  9.6, 0.69
COc1ccc(CNC(=O)CC(C)=NNC(=O)c2ccc([N+](=O)[O-])cc2Cl)cc1
  2.1, 0.64
CCOc1ccc(C(C)=NNC(=O)Cc2ccccc2)cc1
  0.0, 0.66
CC(C)Nc1nc(NC(C)C)nc(Oc2ccc(C=NO)cc2)n1
  0.4, 0.72
CCOc1ccc(OCc2cccc(C(=O)NN=Cc3cccnc3)c2)cc1
  1.9, 0.62
COC(=O)c1c(NC(=O)c2c(C)noc2C)sc2c1CCCCCC2
  -116, 0.66
COc1cc(C(=O)NN=Cc2cn(Cc3ccccc3)c3ccccc23)ccc1O
  -41, 0.65
O=C(O)c1cccc(NN=Cc2cccnc2)c1
  11, 0.65
CN(C(=O)CON=Cc1ccc(OC(F)F)cc1)C1CCS(=O)(=O)C1 (centres undefined)
  4.0, 0.69
CCOc1cc(C=NNC(=O)C(C)Sc2ccccc2)ccc1O (centres undefined)
  2.3, 0.71
Cc1onc(-c2c(Cl)cccc2Cl)c1C(=O)NN=C(N)COc1ccc(Cl)cc1
  0.9, 0.7

The results go on.
Second line of a record: UCH37 inh, Ecoli growth
Cc1cc(C(=O)NN=C2CC(=O)c3ccccc32)c(C)n1-c1ccc(F)cc1
  1.3, 0.69
CCn1nc(C)c(C=NNC(=O)Cn2nnnc2N)c1C
  1.3, 0.67
CCCCn1c(C=NNc2nc3ccccc3[nH]2)nc2ccccc21
  -1.6, 0.68
CC(C)(C=NO)/[N+]([O-])=C/c1ccccc1
  3.6, 0.7
CC(=NN1CCCCC1)c1ccccc1O
  3.4, 0.66
CCOC(=O)N1CCN(C(=O)c2cn(-c3ccc(C)c(C)c3)c(=O)c3ccccc23)CC1
  -1.3, 0.76
O=C(NN=Cc1ccco1)C(O)c1ccccc1 (centres undefined)
  2.3, 0.62
O=C(NN=C/C(Br)=C/c1ccccc1)C(O)c1ccccc1 (centres undefined)
  4.7, 0.59
CC(C)CCn1c(=O)c(C(=O)NN=Cc2cccc(F)c2)c(O)c2ccccc21
  4.7, 0.72
Cn1c2ccccc2c2nnc(NN=Cc3ccc(O)cc3)nc21
  7.9, 0.63

An excerpt of these results, field by field.
SMILES: CCn1nc(C)c(C=NNC(=O)Cn2nnnc2N)c1C
  UCH37 inh: 1.3; Ecoli growth: 0.67

SMILES: CC(=NN1CCCCC1)c1ccccc1O
  UCH37 inh: 3.4; Ecoli growth: 0.66

SMILES: CCCCn1c(C=NNc2nc3ccccc3[nH]2)nc2ccccc21
  UCH37 inh: -1.6; Ecoli growth: 0.68

Next part:
Second line of a record: UCH37 inh, Ecoli growth
CC(=NNC(=O)C1COc2ccccc2O1)c1ccccn1 (centres undefined)
  2.0, 0.69
O=c1c(=Cc2cccnc2)sc2nc3ccccc3n12
  -4.6, 0.65
COc1ccc(OCC(=O)NN=Cc2ccc(O[C@@H]3O[C@H](CO)[C@@H](O)[C@H](O)[C@H]3O)cc2)cc1
  2.7, 0.69
COc1ccc(C=NNC(=O)c2cc(-c3ccccc3)nc3ccccc23)cc1O
  1.6, 0.66
Cc1ccc(NC(=O)C2CC(=O)N/C(=N/N=Cc3ccco3)S2)cc1 (centres undefined)
  1.7, 0.7
CC(CC(=O)Nc1ccc2c(c1)OCCO2)=NNC(=O)C(=O)Nc1ccccc1C
  3.6, 0.68
CCOC(=O)c1c(N=CC2=C(O)CCCC2=O)sc2c1CCCC2
  -2.2, 0.67
Cc1cc(C)nc(NN=Cc2cccc(Cl)c2)n1
  3.5, 0.68
Cn1nc(C(F)(F)F)c(C=NOCc2c(Cl)cccc2Cl)c1Cl
  -1.9, 0.67
O=C(O)COc1ccccc1C=NNC(=O)c1cc(-c2ccccc2)nc2ccccc12
  11, 0.67
COc1ccccc1NS(=O)(=O)c1cc(NC(=NS(=O)(=O)c2ccccc2)c2ccc(F)cc2)ccc1Cl
  -0.5, 0.71
CC(=O)Nc1ccc(S(=O)(=O)N(CCc2ccccc2)CC(=O)NN=Cc2ccc(C(=O)O)cc2)cc1
  5.2, 0.65
CC(=NNc1ccccc1Cl)c1ccc(-n2ccnc2)cc1
  4.0, 0.65
COc1cccc(C=Nn2c(C)nc3ccccc32)c1OC
  1.3, 0.66
Cc1cc(C=NNC(=O)c2cccc(F)c2)c(C)n1-c1ccccc1
  -1.3, 0.68
O=C(Cc1ccc(F)cc1)NN=Cc1ccccn1
  1.6, 0.68
CC(=NNC(=O)c1cnccn1)c1ccncc1
  3.5, 0.72
c1ccc(N=C2N=C(Nc3ccccn3)c3ccccc32)nc1
  -0.2, 0.7
O=C(Nc1ccccc1Cl)ON=Cc1ccncc1
  1.1, 0.66
O=C(O)c1ccc(NN=Cc2ccc(OC(=O)c3ccccc3Cl)cc2)cc1
  -8.8, 0.72
O=[N+]([O-])c1ccc(O)c(C=Nn2cnnc2)c1
  17, 0.63
COc1cc(C=NNC(=O)c2sc(N)nc2C)cc(OC)c1OC
  8.7, 0.73
CC(=NNC(=O)CC#N)C1COc2ccccc2O1 (centres undefined)
  -0.4, 0.69
Cc1cc(C(=O)NN=Cc2ccc(-c3ccccc3Cl)o2)n[nH]1
  -57, 0.67
Cc1[nH]c2ccccc2c1C=NNC(=S)NCc1ccccc1
  -1.1, 0.62
COc1ccc(C=NNC(=O)c2c(C)nc3ccc(Cl)cn23)cc1OC
  -5.3, 0.68
O=C(NN=Cc1cnc(N2CCCCC2)s1)c1ccc(Cl)cc1
  -3.9, 0.68
COc1ccccc1C=NN1C(=O)C2C3C=CC(CC3)C2C1=O (centres undefined)
  2.3, 0.73
O=C(NN=C/C(Cl)=C/c1ccccc1)c1ccncc1
  10, 0.61
O=C(Cc1cccc2ccccc12)NN=Cc1ccc(Sc2nc3ccccc3s2)o1
  4.9, 0.77

Profiles as entered above. Order of screens: UCH37 inh, Ecoli growth
Record of Cc1[nH]c2ccccc2c1C=NNC(=S)NCc1ccccc1 = -1.1, 0.62
Record of Cc1cc(C(=O)NN=Cc2ccc(-c3ccccc3Cl)o2)n[nH]1 = -57, 0.67
Record of COc1ccc(C=NNC(=O)c2c(C)nc3ccc(Cl)cn23)cc1OC = -5.3, 0.68

Continued.
Second line of a record: UCH37 inh, Ecoli growth
COc1ccc(C=NNc2nnc(-c3ccccc3)c(=O)[nH]2)cc1
  9.5, 0.7
Cc1cccc(NCC(=O)NN=Cc2ccccn2)c1
  1.1, 0.69
Clc1ccc(C=Nc2c(-c3ccco3)nc3ccccn23)cc1
  -56, 0.72
O=C(Cc1csc(N2CCOCC2)n1)NN=Cc1cccc(O)c1
  0.8, 0.77
Cc1cc(C=c2sc3nc4ccccc4n3c2=O)c(C)n1-c1ccc(C(=O)O)cc1
  -5.5, 0.71
O=C(O)c1ccc(C=NNC(=O)c2cc(-c3ccc4c5c(cccc35)CC4)n[nH]2)cc1
  8.5, 0.71
CN1c2ccsc2C(=NNc2ccccc2)CS1(=O)=O
  4.0, 0.66
CC(=NOCC(=O)NN=Cc1ccccc1O)c1cccs1
  -7.8, 0.68
CN(CCOc1ccc(Cl)cc1)C(=O)c1cccc(S(=O)(=O)N2CCN(c3ccc(F)cc3)CC2)c1
  3.2, 0.71
O=C(NN=Cc1ccc([N+](=O)[O-])cc1)c1c[nH]c2ccccc12
  3.9, 0.61
O=C(O)CCC(=NNc1ccc([N+](=O)[O-])cc1)c1ccccc1
  10, 0.65
C=C(C)C1CC=C(C)C(=NNC(=O)CCc2ccccc2)C1 (centres undefined)
  3.2, 0.74
CCCC(=NNC(=O)c1cccc(C)c1)c1ccccc1
  2.1, 0.67
Cc1cccc(C(=O)Oc2ccc(C=NNC(=O)c3ccncc3)cc2)c1
  -29, 0.68
O=[N+]([O-])c1cc2c(cc1C=NNc1nc(N3CCCC3)nc(N3CCCC3)n1)OCO2
  7.1, 0.7
Cc1ccc(C(=O)NCC(=O)NN=Cc2sccc2C)cc1[N+](=O)[O-]
  3.2, 0.69
O=C(NN=Cc1ccc([N+](=O)[O-])cc1)c1cccc(N2CCCC2=O)c1
  8.1, 0.65
COc1cc2c(cc1OC)C1=C(C#N)CCC(=NS(=O)(=O)c3cccc(Cl)c3)N1CC2
  1.3, 0.68
CCOc1ccc(S(=O)(=O)NN=C(C)C2CCCCC2)cc1
  1.9, 0.7
CN(C)c1ccc(C=Nn2c(C3CCCCC3)n[nH]c2=S)cc1
  4.0, 0.69
CC(=O)Nc1cccc(C(C)=NNC(=O)c2ccc(Cn3nc([N+](=O)[O-])c(Cl)c3C)o2)c1
  1.1, 0.66
CCCCOC(=O)c1ccc(-c2ccc(C=NNC(=S)NCC)o2)cc1
  -38, 0.72
CC(C)(C)NC(=S)NN=Cc1c(Cl)cccc1Cl
  3.2, 0.69
Oc1ccc(-n2cccc2C=Nn2cnnc2)cc1
  5.6, 0.69
Cn1c[n+](C)cc1C=NO
  2.1, 0.73
COc1cc(C=NNC(=O)c2cccnc2)ccc1OCC(=O)Nc1ccc(C)cc1
  -8.5, 0.74
CC(=NNC(=O)c1cccc(S(=O)(=O)Nc2ccc(C)cc2C)c1)c1ccncc1
  3.6, 0.7
CC(C)c1c(C(=O)NN=Cc2ccncc2)nnn1-c1nonc1N
  2.1, 0.67
CC(C)(C)c1ccc2c(c1)OC(C(=O)NN=Cc1ccc(-c3cccc(C(=O)O)c3)o1)CO2 (centres undefined)
  -11, 0.66
COc1ccccc1C(C)=NOc1cc(N)cc([N+](=O)[O-])c1
  4.3, 0.71
